Assay outcomes deposited in PubChem BioAssay by Vanderbilt University.
GIRK2 act: GIRK2 channel activation; HEK293-GIRK2 thallium flux, Thallos fluorescence; calls only for hits at 25 µM; 0.05% of 63,000 active; AID 1259325;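 active means among the strongest 0.2% of first-round signals and kept after retests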;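 further: first round at about 10 µM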
Target sequence (P48051 whole entry, looked up): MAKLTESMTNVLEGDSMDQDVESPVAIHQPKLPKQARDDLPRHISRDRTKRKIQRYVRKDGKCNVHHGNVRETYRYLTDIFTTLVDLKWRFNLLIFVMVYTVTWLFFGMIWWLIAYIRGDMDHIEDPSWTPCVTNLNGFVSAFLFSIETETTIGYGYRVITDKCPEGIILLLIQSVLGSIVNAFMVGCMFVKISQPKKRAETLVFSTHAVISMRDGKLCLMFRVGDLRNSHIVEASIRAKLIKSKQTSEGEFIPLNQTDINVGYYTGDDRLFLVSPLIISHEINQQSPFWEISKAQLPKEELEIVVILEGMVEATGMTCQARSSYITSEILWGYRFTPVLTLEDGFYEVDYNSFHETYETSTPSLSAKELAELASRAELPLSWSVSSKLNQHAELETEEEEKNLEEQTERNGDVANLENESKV
Calls only; i = inactive. An excerpt. The share of hits here may be higher or lower than overall.

SMILES | GIRK2 act
O=C(CCS(=O)(=O)c1ccccc1)N1CCC(CSCc2ccco2)CC1 | i
CCOc1ccc2ccccc2c1C(=O)N1CCN(CCn2cccn2)CC1 | i
Cc1ccc(NC(=O)CC(C)n2nc(C)c(Br)c2C)cc1Cl (centres undefined) | i
CCC(C(=O)NCc1ccc(C)cc1)n1cc(-c2nc(C3CC3)no2)ccc1=O (centres undefined) | i
O=c1n(Cc2nc(-c3ccc(Br)cc3)no2)nc2ccc(-c3ccccc3)nn12 | i
O=C(Oc1ccc2cc(-c3nc4ccccc4o3)c(=O)oc2c1)C1CCCCC1 | i
Cc1cc(S(=O)(=O)N2CC(c3nc4ccccc4[nH]3)C2)c(Cl)cc1Cl | i
COC(=O)c1ccc(Cn2nc(-c3ccccc3)c3sc(N4CCCC4)nc3c2=O)cc1 | i
Cc1ccc2nc(NC(=O)CN3CCc4nc(NC(=O)C5CC5)sc4C3)sc2c1 | i
CC1CCCN(c2nc3c(c(=O)[nH]c(=O)n3C)n2C(C)C)C1 (centres undefined) | i
O=C(Nc1nc(CCC(=O)N2CCCCCC2)cs1)NC1CCCCC1 | i
CCN(CC)CCNC(=O)C(=O)c1cn(CC(=O)N2CCOCC2)c2ccccc12 | i
CCC(C(=O)N1C2CCC1CN(Cc1ccccc1)C2)c1ccccc1 (centres undefined) | i
COc1ccc(-c2cc3c(=O)n(CC(=O)Nc4ccc(C)c(C)c4)ccn3n2)cc1OC | i
CC(C)CCNc1nc2c(c(=O)[nH]c(=O)n2C)n1CC(O)COc1ccccc1 (centres undefined) | i
O=C(c1ccc(=O)[nH]c1)N1CC(c2nc(-c3cccc(Cl)c3)no2)C1 | i
CCCNC(=O)CN1CCN(C(=O)c2sc3ncccc3c2-n2cccc2)CC1 | i
CC(=O)Nc1ccc(S(=O)(=O)NCCNc2cc(Nc3ccccn3)ncn2)cc1 | i
COc1ccc(C(C)NC(=O)CCc2nnc3ccc(-c4ccc(C)cc4)nn23)cc1OC (centres undefined) | i
Cc1cn2c3c(=O)n(CC(C)C)c(=O)n(C)c3nc2n1-c1ccccc1 | i
CC(Oc1ccccc1Cl)C(=O)NCCn1cnc(-c2ccccc2)cc1=O (centres undefined) | i
CCCC(NC(=O)[C@H](O)[C@H](N)Cc1ccccc1)C(=O)O (some centres undefined) | i
CCCCN(CC)C(=O)CSc1nnc2c(=O)n(Cc3ccccc3F)ccn12 | i
O=C(Cn1ccc2ccccc21)N1CC(c2nc(-c3ccccn3)no2)C1 | i
Cc1ccc(NC(=O)Cn2cccc(S(=O)(=O)N3CCCCCC3)c2=O)c(Cl)c1 | i

A second format for 6 compounds above:
GIRK2 act | SMILES
i | COC(=O)c1ccc(Cn2nc(-c3ccccc3)c3sc(N4CCCC4)nc3c2=O)cc1
i | Cc1ccc2nc(NC(=O)CN3CCc4nc(NC(=O)C5CC5)sc4C3)sc2c1
i | CC1CCCN(c2nc3c(c(=O)[nH]c(=O)n3C)n2C(C)C)C1 (centres undefined)
i | O=C(Nc1nc(CCC(=O)N2CCCCCC2)cs1)NC1CCCCC1
i | CCN(CC)CCNC(=O)C(=O)c1cn(CC(=O)N2CCOCC2)c2ccccc12
i | CCC(C(=O)N1C2CCC1CN(Cc1ccccc1)C2)c1ccccc1 (centres undefined)

The main list resumes with the 6 entries that preceded the break.
SMILES | GIRK2 act
Cc1cn2c3c(=O)n(CC(C)C)c(=O)n(C)c3nc2n1-c1ccccc1 | i
CC(Oc1ccccc1Cl)C(=O)NCCn1cnc(-c2ccccc2)cc1=O (centres undefined) | i
CCCC(NC(=O)[C@H](O)[C@H](N)Cc1ccccc1)C(=O)O (some centres undefined) | i
CCCCN(CC)C(=O)CSc1nnc2c(=O)n(Cc3ccccc3F)ccn12 | i
O=C(Cn1ccc2ccccc21)N1CC(c2nc(-c3ccccn3)no2)C1 | i
Cc1ccc(NC(=O)Cn2cccc(S(=O)(=O)N3CCCCCC3)c2=O)c(Cl)c1 | i
O=C(c1cccc(Br)c1)N1CCN(CC(O)C2CC2)CC1 (centres undefined) | i
N#Cc1nc(-c2ccc(S(=O)(=O)N3CCOCC3)cc2)oc1N1CCC(Cc2ccccc2)CC1 | i
O=C(Nc1cc(C(F)(F)F)ccc1Cl)c1cccc2[nH]ccc12 | i
O=C(Cn1cnnn1)Nc1ccccc1-c1ccc(=O)[nH]n1 | i
COc1cccc(-n2c(-c3ccc(F)cc3)cn3c4c(=O)[nH]c(=O)n(C)c4nc23)c1 | i
O=C(NCC1(c2ccccc2)CCOCC1)C1(c2ccc(Cl)cc2)CCCC1 | i
Cc1ccc(CNC(=O)Cn2cccc(-c3nc(-c4ccc(C)cc4)no3)c2=O)cc1 | i
Cc1ccc(Oc2nccn3c(=O)n(CC(=O)Nc4cccc(C)c4)nc23)cc1 | i
CCn1c(=O)c2ccccc2n(Cc2nc(-c3cccs3)no2)c1=O | i
CC(=O)Nc1cccc(NC(=O)CCc2csc(NC(=O)c3ccc(=O)[nH]c3)n2)c1 | i
O=C(Nc1ccccc1Cl)c1ccc(-n2ccnc2)nn1 | i
O=C(NCC(O)c1ccoc1)C(=O)Nc1ccc(C(F)(F)F)cc1 (centres undefined) | i
O=C(NCCn1ncccc1=O)c1ccsc1 | i
CC(=O)N1CCC(Oc2ncccc2Br)CC1 | i
CC(C)c1ccc(-n2nnc(-c3nc(-c4ccc(F)cc4)no3)c2N)cc1 | i
CN1CCc2c(sc(NC(=O)c3ccc(C#N)cc3)c2-c2nc3ccccc3s2)C1 | i
COc1ccc(Cl)cc1NC(=O)CSc1ncccc1-c1nc2ccccc2[nH]1 | i
O=S(=O)(c1cc(F)ccc1F)N1CCN(CCn2ccnc2-c2ccccc2)CC1 | i
Cc1nc(N2CCN(C(=O)c3ccccc3C(F)(F)F)CC2)cc(-n2cccn2)n1 | i
O=C(C1CC=CCC1)N1CCC2(CC1)OCCS2 (centres undefined) | i
Cc1cn2c3c(=O)n(C/C=C/c4ccccc4)c(=O)n(C)c3nc2n1CC(C)C | i
CCc1ccccc1NC(=O)Cn1nc2c(Sc3ccccc3CC)nccn2c1=O | i
Cc1ccc2c(N)c(C(=O)c3ccc4c(c3)OCO4)sc2n1 | i
COc1ccc(Cn2cnc3c4cc(C)ccc4n(CC(=O)NCCC(C)C)c3c2=O)cc1 | i
CN(CC(=O)NCCCn1ncccc1=O)c1nc2c(F)cccc2s1 | i

(list continues)
SMILES | GIRK2 act
COc1cccc(-n2c(C)cn3c4c(=O)n(Cc5cccc(C)c5)c(=O)n(C)c4nc23)c1 | i
COc1ccc(C2(CNC(=O)c3ccco3)CCOCC2)cc1 | i
O=C(Nc1ccc2c(c1)CCCN2C(=O)C1CC1)Nc1ccc2c(c1)OCO2 | i
O=C(c1csc(Nc2cccnc2)n1)N1CCN(CCc2ccccc2)CC1 | i
COc1cc2c(cc1OC)CN(C(=O)CSc1ncnc3sc(C)c(C)c13)CC2 | i
COCCN(Cc1ccsc1)C(=O)C1CC(=O)N(c2ccc(C)c(C)c2)C1 (centres undefined) | i
Cc1nnc(C2CCCN(C(=O)c3cc(-c4cccs4)[nH]n3)C2)s1 (centres undefined) | i
Cc1c(C)n2c3c(=O)n(C)c(=O)n(C)c3nc2n1C1CCCCC1 | i
O=C(Nc1cc(-n2cccn2)ncn1)c1ccc(S(=O)(=O)N2CCCC2)cc1 | i
COc1ccccc1OCC#CCNS(=O)(=O)C1CCCCC1 | i
Cc1ccc2[nH]c3c(=O)n(CC(=O)N4CCN(c5cccc(Cl)c5)CC4)cnc3c2c1 | i
COc1cc(NC(=O)c2cn(-c3cc(N4CCCCC4)ncn3)cn2)cc(OC)c1 | i
CCNC(=O)Nc1nc2c(Br)cccc2s1 | i
O=C(Nc1ccc(SCC(=O)N2CCCC2)nn1)C1c2ccccc2Oc2ccccc21 | i
CCOC(=O)c1ccc(-n2c(C)cn3c4c(=O)n(CC)c(=O)n(C)c4nc23)cc1 | i
CC12CC(O)C(O)CC1CCC1C2=CC(=O)C2(C)CC(=O)CC12 (centres undefined) | i
O=C(CN1CCN(Cc2nc3ccccc3[nH]2)CC1)NCC1CCCO1 (centres undefined) | i
CN1CCOc2ccc(NS(=O)(=O)c3ccc(-c4ccccc4)cc3)cc2C1=O | i
Cc1c(C(=O)Nc2ccc3c(c2)C(=O)N2CCCCC2CCO3)cnn1-c1ccccc1 (centres undefined) | i
O=S(=O)(Nc1nc2ccccc2nc1NCc1ccc2c(c1)OCO2)c1cccs1 | i
Cc1nc(NCCNS(C)(=O)=O)cc(N2CCOCC2)n1 | i
COc1cccc2sc(NC(=O)c3cc(C)nn3C)nc12 | i
CC(=O)CSc1nc2c(c(=O)n(C)c(=O)n2C)n1CC(O)COc1ccc(Cl)cc1 (centres undefined) | i
Cc1cn2c(CCC(=O)Nc3ccc4c(c3)Cc3ccccc3-4)csc2n1 | i
Cc1cc(C)c(NC(=O)Cn2cnc3nc(N4CCOCC4)ncc3c2=O)c(C)c1 | i

(cont.)
SMILES | GIRK2 act
CNC(=O)CSc1ncc(-c2cccc([N+](=O)[O-])c2)n1-c1cccc(C(F)(F)F)c1 | i
COc1ccc2cc(C(=O)N3CCOCC3CN(C)C)[nH]c2c1 (centres undefined) | i
O=C(c1cccc(-n2cnnn2)c1)N1CCN(Cc2csc(-c3ccccc3)n2)CC1 | i
COc1ccccc1NC(=O)Cn1nc2c(SCc3ccc(Cl)cc3)nccn2c1=O | i
C#CCOCC1CCN(C(=O)c2cccc(C#N)c2)CC1 | i
O=C(CSc1ncc(CO)n1Cc1ccc(F)cc1)Nc1ccc([N+](=O)[O-])cc1 | i
Cc1ccc(C)c2sc(N(CC3CCCO3)C(=O)c3ccc(Br)o3)nc12 (centres undefined) | i
CCCS(=O)(=O)N1CCCc2ccc(NC(=O)Nc3ccc(OC)cc3)cc21 | i
Cn1c(=O)c2c(nc(N3CCOCC3)n2CCCc2ccccc2)n(C)c1=O | i
CCCS(=O)(=O)N1CCCc2cc(NS(=O)(=O)c3cc(C)ccc3OC)ccc21 | i
NS(=O)(=O)c1ccc(NC(=O)COc2ccc(Cl)cc2)cc1 | i
CCOc1ccc(N2CC(C)Cn3c2nc2c3c(=O)n(CCN3CCOCC3)c(=O)n2C)cc1 (centres undefined) | i
O=c1cc(CN2CCN(c3ccccc3)CC2)c2c(ccc3ccccc32)o1 | i
CN1C(=O)C(C)(C)COc2ccc(NC(=O)Nc3ccc(Cl)cc3)cc21 | i
COc1ccc(Cl)cc1NC(=O)N1CC(c2nc(-c3ccncc3)no2)C1 | i
CCCCCC(O)/C=C/[C@H]1C(O)CC(=O)C1CCCCCCCO (some centres undefined) | i
Cc1cc(SCC(=O)Nc2cc(C(F)(F)F)ccc2Cl)ncn1 | i
Cc1cccc(-c2noc(Cn3ccn(Cc4ccc(Cl)cc4)c(=O)c3=O)n2)c1 | i
O=C(NC1CC1)c1nnn(-c2ccc(NC(=O)c3ccccc3Cl)cc2)n1 | i
CC(C)(C)c1ccc(S(=O)(=O)Nc2ccc(C(=O)Nc3ccncc3)cc2)cc1 | i
CCc1cccc(NC(=O)c2cn(Cc3ccc(NC(=O)Cc4cccc(OC)c4)cc3)cn2)c1 | i
COc1ccc(CC(=O)NCCCS(=O)(=O)N2CCN(c3ccccc3)CC2)cc1 | i
COc1cccc(Oc2c(C)oc3c4c(ccc3c2=O)OCN(Cc2ccccn2)C4)c1 | i
CC(C)c1ccc2oc(=O)cc(CN3CCN(Cc4ccc5c(c4)OCO5)CC3)c2c1 | i
O=S(=O)(NC1CCN(Cc2noc(-c3ccccc3)n2)C1)c1ccc(F)c(Cl)c1 (centres undefined) | i

Some of the entries so far, field by field.
CC(Oc1ccccc1Cl)C(=O)NCCn1cnc(-c2ccccc2)cc1=O (centres undefined)
- GIRK2 act: i
Cc1ccc2nc(NC(=O)CN3CCc4nc(NC(=O)C5CC5)sc4C3)sc2c1
- GIRK2 act: i
CN(CC(=O)NCCCn1ncccc1=O)c1nc2c(F)cccc2s1
- GIRK2 act: i

(further entries)
SMILES | GIRK2 act
CCOc1cc(C(=O)N2CCN(c3ncnc4c3nnn4-c3ccc(F)cc3)CC2)cc(OCC)c1OCC | i
CNC(=O)CSc1nnc(N2CCN(C(=O)c3cccc([N+](=O)[O-])c3C)CC2)s1 | i
O=C(CSc1nccnc1N1CCSCC1)Nc1ccc2c(c1)OCCO2 | i
Cc1cccc(N2CCN(S(=O)(=O)c3ccc(Cl)c4ccccc34)CC2)c1C | i
CC(=O)Nc1ccc(SCCCC(=O)N2CCc3ccccc32)nn1 | i
COc1cccc(NC(=O)Cn2cc(S(=O)(=O)c3ccc(C)c(C)c3)c(=O)c3ccccc32)c1 | i
COc1cc2ncc(C#N)c(N3CCC(C(=O)Nc4cccc(C#N)c4)CC3)c2cc1OC | i
Cc1noc(CNC(=O)Cc2cn(C)c3ccccc23)n1 | i
O=C(Nc1ccc2c(c1)OCCO2)c1nnn(-c2ccc(Cl)cc2)n1 | i
O=C(c1nnn(-c2ccc(F)cc2)n1)N1CCN(CCc2ccccc2)CC1 | i
NC(=O)c1ccccc1OCC#CCNC(=O)C1CC=CCC1 (centres undefined) | i
CCOc1ccccc1-c1noc(Cn2cnc3c(cnn3-c3ccc(OC)cc3)c2=O)n1 | i
CCOC(=O)C1CCCN(C(=O)CN2CCN(c3ccc(F)c(F)c3)C2=O)C1 (centres undefined) | i
O=C(CCc1csc(NC(=O)NC2CCCCC2)n1)NCc1ccc2c(c1)OCO2 | i
CCS(=O)(=O)N1CCC(c2nnc(C(F)(F)F)o2)CC1 | i
Cc1oc2c3c(ccc2c(=O)c1-c1ccc(Cl)cc1)OCN(CCN1CCOCC1)C3 | i
COc1ccc(-c2coc3cc(OCC(N)=O)ccc3c2=O)cc1OC | i
COc1cccc(CNC(=O)CCc2csc(NC(=O)c3ccc(=O)[nH]c3)n2)c1 | i
COc1ccc(C2(C)NC(=O)N(CC(=O)Nc3ccc(C)c(Cl)c3)C2=O)cc1 (centres undefined) | i
Cc1ccc(-c2nnc(NC(=O)c3ccc(Oc4ccccc4)cc3)o2)c(C)c1 | i
COc1ccc(NC(=O)CSc2cc(N3CCN(c4ccccc4OC)CC3)ncn2)cc1 | i
COc1cccc(-c2c(NC(=O)c3ccco3)oc3ccc(Cl)cc3c2=O)c1 | i
O=C(CSc1ncc(-c2ccc(Cl)cc2)o1)N1CCCCC1 | i
